From PubChem
FPR binding: FPR binders displacing fluorescent formyl peptide, primary screen, U937-FPR cells, fMLFK-FITC, flow cytometry (AID 362); fMet-Leu-Phe receptor (Homo sapiens); U937-FPR cells, fMLFK-FITC displacement, flow cytometry; active compounds read high; test concentration not given here; most inactive calls were filed without a number and no value below 0 was filed; inhibition, %; actives 1% (n = 4,300);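 active means inhibition of labelled peptide binding to the formyl peptide receptor of at least 65%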;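 further: plate controls were buffer control wells for no effect and unlabeled fMLFF blocking peptide for full effect; higher means less cell fluorescence so more probe displaced; part of the set was picked by virtual screening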
The depositor's hits bear a star; i = inactive. The list is partial; the hit share may differ from the screen's.

The opening 4 records (preview)
| FPR binding | compound |
| --- | --- |
| i | CC(=O)N1CCc2cc(S(=O)(=O)NC(C(=O)NCCCN3CC(C)CC(C)C3)C(C)C)ccc21 (configuration not stated) |
| i | COc1ccc(C2NC(c3ccc(OC)cc3)C([N+](=O)[O-])C(C)(C)C2[N+](=O)[O-])cc1 (configuration not stated) |
| i | O=[N+]([O-])c1cccc(C2c3c(ncnc3N3CCCCC3)Oc3ncnc(N4CCCCC4)c32)c1 |
| i | CC1CCN(S(=O)(=O)N2CCC(C(=O)O)CC2)CC1 |

Results, from the first entry:
| FPR binding | compound |
| --- | --- |
| i | CC(=O)N1CCc2cc(S(=O)(=O)NC(C(=O)NCCCN3CC(C)CC(C)C3)C(C)C)ccc21 (configuration not stated) |
| i | COc1ccc(C2NC(c3ccc(OC)cc3)C([N+](=O)[O-])C(C)(C)C2[N+](=O)[O-])cc1 (configuration not stated) |
| i | O=[N+]([O-])c1cccc(C2c3c(ncnc3N3CCCCC3)Oc3ncnc(N4CCCCC4)c32)c1 |
| i | CC1CCN(S(=O)(=O)N2CCC(C(=O)O)CC2)CC1 |
| 9 | CCOC(=O)C1C(=O)C=C(c2ccc(OC)c(OC)c2)CC1c1ccc(OC)c(OC)c1 (configuration not stated) |
| 75* | CC1(C)CC(=O)C(C(c2ccc(Br)cc2)C2C(=O)CC(C)(C)CC2=O)C(=O)C1 |
| i | CCN(CCCNC(=O)c1cn(CC(C)C)c(=O)c2c1c1ccccc1n2C)c1cccc(C)c1 |
| 21 | CCCC1=C(C(=O)OCC)C(c2c(F)cccc2Cl)NC(=O)N1C (configuration not stated) |
| i | CC12C=CC(=O)C=C1CCC1C2C(O)CC2(C)C1CCC2(O)C(=O)CO (configuration not stated) |
| 11 | COCCOC(=O)C1=C(C)NC2=C(C(=O)C(C(=O)OC)C(C)C2)C1c1ccc(C)o1 (configuration not stated) |
| i | CCOC(=O)C(C)Oc1ccc2c(=O)c(-c3csc(C)n3)c(C(F)(F)F)oc2c1 (configuration not stated) |
| i | CC(=O)N(c1c(C)n(C)n(-c2ccccc2)c1=O)C1(C(=O)NC2CCCC2)CCCCC1 |

Printed as active in FPR binding, of those listed so far:
| FPR binding | compound |
| --- | --- |
| 75* | CC1(C)CC(=O)C(C(c2ccc(Br)cc2)C2C(=O)CC(C)(C)CC2=O)C(=O)C1 |

Next part.
| FPR binding | compound |
| --- | --- |
| i | CCCC(C)C1C(C#N)=C(N)OC2=C1C(=O)CC(C)(C)C2 (configuration not stated) |
| i | COc1cc([N+](=O)[O-])cc2c1OC1(C=C2)Nc2ccccc2C1(C)C (configuration not stated) |
| i | COc1ccc(C)cc1NC(=O)C(CC(C)C)NS(=O)(=O)c1ccc2c(c1)CCN2C(C)=O (configuration not stated) |
| i | CC1=C(C(=O)OC2CCCCC2)C(c2ccc(O)c([N+](=O)[O-])c2)C2=C(CC(C)(C)CC2=O)N1 (configuration not stated) |
| 18 | CCc1cc2c3c(c(=O)oc2cc1OC)CCCC3 |
| i | CC1CCCC(Nc2ccc(N3C(=O)C4C5C=CC(C5)C4C3=O)cc2[N+](=O)[O-])C1C (configuration not stated) |
| i | CSc1cccc(NC(=O)C(NS(=O)(=O)c2ccc3c(c2)CCN3C(C)=O)C(C)C)c1 (configuration not stated) |
| i | CCC(C)NC(=O)CSc1nc2ccccc2c(=O)n1CC1CCC(C(=O)NCc2ccccc2)CC1 (configuration not stated) |
| i | COCCCNC(=O)c1cn(CC(C)C)c(=O)c2c1c1ccccc1n2C |
| i | CCN(C(=O)c1ccc(F)cc1)c1ccc(C(O)(C(=O)OC)C(F)(F)F)cc1 (configuration not stated) |
| i | C/C=C/COC(=O)C1=C(C)NC(=O)NC1c1cc(OC)c(OC)c(OC)c1 (configuration not stated) |
| 17 | COc1cccc(C2C(C(=O)OC3CCCCC3)=C(C)NC3=C2C(=O)CC(c2ccccc2)C3)c1 (configuration not stated) |
| 8 | CC1(C)CC(=O)C2=C(C1)OC(N)=C(C#N)C2c1ccc(Cl)cc1 (configuration not stated) |
| i | CC(C)Oc1ccc2c(C(F)(F)F)cc(=O)oc2c1 |
| i | COc1ccc(C2NC(=O)NC(C)=C2C(=O)OC2CCCCCC2)cc1 (configuration not stated) |
| i | CC(C)C1=CC23CCC4C(C)(C(=O)O)CCCC4(C)C2CC1C1C(=O)N(c2ccc(O)cc2)C(=O)C13 (configuration not stated) |
| i | O=C(O)c1cccc(NC(=O)c2cccc(N3C(=O)C4C5CCC(C5)C4C3=O)c2)c1 (configuration not stated) |
| i | CC(=O)c1cccc(NC(=O)C2C3C=CC(C3)C2C(=O)O)c1 (configuration not stated) |
| 28 | CCOC(=O)C1C(=O)C=C(c2ccc(OC)c(OC)c2)CC1c1ccc(CC)cc1 (configuration not stated) |
| i | CC(=O)N1CCCc2cc(S(=O)(=O)NC(C(=O)Nc3ccc(C)cc3C)C(C)C)ccc21 (configuration not stated) |
| i | COc1cccc(CNC(=O)C2CCC(CNS(=O)(=O)c3ccc(Br)s3)CC2)c1 (configuration not stated) |
| 13 | CCOc1ccc(NS(=O)(=O)c2ccc3[nH]cc(C(=O)N(CC(C)C)CC(C)C)c(=O)c3c2)cc1 |
| 1 | COCCCNC(=O)CSc1nc2cc3c(cc2c(=O)n1CCCCCC(=O)NCc1ccc2c(c1)OCO2)OCO3 |
| i | CNC(=O)C1CCC(CNS(=O)(=O)c2ccc(C)cc2)CC1 (configuration not stated) |

Structures above that contain a CF3 group, in the order listed:
| FPR binding | compound |
| --- | --- |
| i | CCOC(=O)C(C)Oc1ccc2c(=O)c(-c3csc(C)n3)c(C(F)(F)F)oc2c1 (configuration not stated) |
| i | CCN(C(=O)c1ccc(F)cc1)c1ccc(C(O)(C(=O)OC)C(F)(F)F)cc1 (configuration not stated) |
| i | CC(C)Oc1ccc2c(C(F)(F)F)cc(=O)oc2c1 |

Following part.
| FPR binding | compound |
| --- | --- |
| i | CC(=O)Nc1ccc(S(=O)(=O)NCC2CCC(C(=O)NCCCN(CC(C)C)CC(C)C)CC2)cc1 (configuration not stated) |
| i | COc1ccc(OC)c(NC(=O)C(CC(C)C)NS(=O)(=O)c2ccc3c(c2)CCN3C(C)=O)c1 (configuration not stated) |
| i | CC1=C(C(=O)OC2CCCC2)C(c2cc3c(cc2[N+](=O)[O-])OCO3)C2=C(CC(c3ccccc3)CC2=O)N1 (configuration not stated) |
| 2 | CC(=O)c1ccc(N2CCN(C(=O)c3cn(CC(C)C)c(=O)c4c3c3ccccc3n4C)CC2)cc1 |
| 29 | COc1ccc(OC)c(C2/C(=C(\O)c3ccc([N+](=O)[O-])cc3)C(=O)C(=O)N2CCCCCC(=O)O)c1 (configuration not stated) |
| i | O=C(CSc1nc2ccccc2c(=O)n1CC1CCC(C(=O)NCCc2ccccc2)CC1)NCc1ccco1 (configuration not stated) |
| i | COc1ccc(C2(C(=O)NC3CCCCC3)CCCC2)cc1OC |
| i | COc1ccccc1C1CC(=O)C2=C(C1)NC(C)=C(C(=O)OC1CCCC1)C2c1ccc(OC(C)=O)cc1 (configuration not stated) |
| i | CCCCn1c(=NC(=O)c2ccccc2[N+](=O)[O-])c(C(=O)OCC)cc2c(=O)n3ccccc3nc21 |
| 11 | CCOC(=O)C1=C(C)NC2=C(C(=O)C(C(=O)OC)C(C)C2)C1c1cccs1 (configuration not stated) |
| 2 | COCCOC(=O)C1=C(C)NC2=C(C(=O)C(C(=O)OC)C(C)C2)C1c1ccc(OC)c(OC)c1 (configuration not stated) |

Arranged by molar mass (high to low): part of the list above
| FPR binding | compound |
| --- | --- |
| i | CC(=O)Nc1ccc(S(=O)(=O)NCC2CCC(C(=O)NCCCN(CC(C)C)CC(C)C)CC2)cc1 (configuration not stated) |
| i | CC1=C(C(=O)OC2CCCC2)C(c2cc3c(cc2[N+](=O)[O-])OCO3)C2=C(CC(c3ccccc3)CC2=O)N1 (configuration not stated) |
| i | CCCCn1c(=NC(=O)c2ccccc2[N+](=O)[O-])c(C(=O)OCC)cc2c(=O)n3ccccc3nc21 |
